Source: PubChem BioAssay (National Center for Advancing Translational Sciences (NCATS))
Menin-MLL FL inh – inhibitors of human menin-MLL interaction, wild-type MLL peptide; Fluorescence polarization, fluorescein-MLL peptide displacement from menin; FP activity change, % at 61.4 µM; 290,000 tested, under 10 active; AID 1766; inconclusive = falling polarisation curve, or a change in total fluorescence; inactive = total fluorescence flat and polarisation flat or rising; no compound was filed as active; the % refers to the polarisation; negative = inhibition;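 also: % of control where 0% means no effect; inhibitors lower the polarisation; unlabelled MLL peptide was the positive control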
ClpP mod – qHTS Assay for Activators of ClpP | ATP-dependent Clp protease proteolytic subunit (Bacillus subtilis (strain 168)), P80244 | purified B. subtilis ClpP, FRET peptide cleavage, 20 min | Potency, µM (doses to about 57.5 µM), inactives show at the top dose activity change, negative = active | 340,000 compounds, 1.9% hits | AID 651965, 2013; active = well fitted falling curve with a large enough effect; inconclusive = small, poorly fitted or top-dose-only effect; inactive = no such curve, though single readings can be large or run the other way; also: potency is read from the fitted curve at half-maximal effect; the source files actives as falling curves though it sought activators and does not explain the sign; nearly all actives have a fitted effect of over 65% in size; many hits overshoot -100%
Target sequence (P80244 whole entry, looked up): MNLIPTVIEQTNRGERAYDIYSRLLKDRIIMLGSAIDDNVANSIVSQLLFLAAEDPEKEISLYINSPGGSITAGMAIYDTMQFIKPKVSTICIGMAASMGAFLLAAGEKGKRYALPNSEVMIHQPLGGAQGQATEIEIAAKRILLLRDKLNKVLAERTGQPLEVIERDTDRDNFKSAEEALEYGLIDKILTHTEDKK
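Buffer: 100 mM Tris/HCl pH8, 100 mM KCl, 0.05% low protease BSA, 2.5% glycerol, 0.01% Tween-20. ClpP 10 microg/mL final; 20 min RT; delta FRET normalized to ADEP and DMSO controls.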
TRPML1 blocker – inhibitors of human TRPML1 channel; 390,000 compounds, 0.02% hits; TRPML1-inducible cells, Ca2+ dye fluorescence, FDSS; active compounds read low; inhibition of EC80 agonist-evoked calcium signal; AID 624415; activity change, negative = inhibition, % (test concentration not listed); in the data active means activity change below about -50%; inconclusive means about -30% to -50%; inactive means above about -30%;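 also: stimulus is agonist 54-4 at its EC80 concentration; % is scaled to controls: 0 for no effect and ±100 for the full control effect; compound concentration not given in the record; the text of the record puts the active cut at -80%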
Target sequence (Q9GZU1 whole entry, looked up): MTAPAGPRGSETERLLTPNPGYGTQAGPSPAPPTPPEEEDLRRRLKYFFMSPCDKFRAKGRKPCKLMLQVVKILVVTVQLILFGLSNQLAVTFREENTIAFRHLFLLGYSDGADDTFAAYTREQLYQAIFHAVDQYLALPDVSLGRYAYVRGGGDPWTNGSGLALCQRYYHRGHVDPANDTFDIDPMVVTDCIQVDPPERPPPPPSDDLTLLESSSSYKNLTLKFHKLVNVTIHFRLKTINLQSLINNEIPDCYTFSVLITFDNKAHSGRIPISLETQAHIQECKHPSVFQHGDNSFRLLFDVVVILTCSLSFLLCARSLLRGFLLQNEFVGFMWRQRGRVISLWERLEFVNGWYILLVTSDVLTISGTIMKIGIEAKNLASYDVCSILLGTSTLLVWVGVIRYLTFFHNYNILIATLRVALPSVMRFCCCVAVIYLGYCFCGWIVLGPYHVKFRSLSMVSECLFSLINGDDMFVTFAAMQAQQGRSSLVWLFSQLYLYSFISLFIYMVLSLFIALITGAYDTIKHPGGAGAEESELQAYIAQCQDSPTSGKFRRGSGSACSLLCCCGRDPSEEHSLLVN
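Tet-induced TRPML1-DL cells loaded with Ca8 no-wash calcium dye were read kinetically on FDSS. Compound addition was followed by EC80 agonist 54-4 (4 uM final); inhibition was read over 110 s.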
TRPML1 agonist – human mucolipin-1 channel agonism | Q9GZU1 | TRPML1-expressing cells, Ca2+ dye fluorescence, FDSS; host cell line not named in the record; reference of the full effect not given here | activation, % (test concentration not listed) | 410,000 compounds, 0.12% hits | AID 624414; in the data active = activation above about 50%; inconclusive = about 30% to 50%; inactive = below about 30%; also: 0% is about no effect; the text of the record puts the active cut at 80%
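TRPML1-DL cells, Tet-induced overnight (~16 h, 37 degrees C), loaded 45-90 min at room temperature with Ca8 no-wash calcium dye plus quencher. FDSS fluorescence: 10 s baseline, compound pin-transfer, 110 s agonist read, then EC80 54-4 (4uM final) and 110 s antagonist read.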
PINK1 expr mod – modulators of PINK1 expression; PINK1 immunofluorescence, high-content cytometry, 24 h; Potency, µM (highest dose often 76.6 µM), for the others: at the top dose activation (PINK1 increase), actives largely listed as activators; 410,000 compounds, 0.2% hits; AID 624263; active = well fitted activation curve with a large enough effect; inconclusive = small, poorly fitted or top-dose-only effect; inactive = flat fitted curve, though single readings scatter; cell line not stated here;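 also: potency is read from the fitted curve at half-maximal effect; % of control where 0% means no effect; nearly all actives have a fitted effect of over 65% in size; a mitochondrial uncoupler was the plate control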
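Decision-based qHTS: stable cells, 24 h exposure to five compound concentrations, CCCP as control. Fixed cells stained for PINK1 plus nuclear, mitochondrial and cell markers, cytometer read.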
Sfp PPTase inh – Sfp phosphopantetheinyl transferase inhibition | Q9F4F7 | Biochemical Sfp PPTase activity, qHTS | Potency, µM, without a hit: max response, negative = inhibition, hits mostly inhibitors | 310,000 compounds, 3.5% hits; active = well fitted inhibition curve with a large enough effect; inconclusive = small, poorly fitted or top-dose-only effect, or another doubt; inactive = no such curve, though single readings can be large or run the other way;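 also: the enzyme is Sfp with the accession as filed and its product quenches rhodamine fluorescence; potency is read from the fitted curve at half-maximal effect; 0% = enzyme reaction without inhibitor and -100% = no enzyme wells; top concentration of the series not given in the record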
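Buffer: 50 mM Hepes-Na pH 7.6, 10 mM MgCl2, 0.01% Nonidet P-40, 0.01% BSA. Enzyme 15 nM, pre-exposed to compound 15 min; substrates then added and fluorescence change tracked over 30 min.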
TRPV1 potentiator – enhances activation of the human vanilloid receptor TRPV1. potentiation, % at 8.33 µM. TRPV1-expressing cells, Fluo-8 calcium influx, capsaicin EC20 potentiation; host cell line not named in the record; control for the full effect not named in the record. Q8NER1. 320,000 compounds, 0.02% hits. AID 540277; active means potentiation above 80%; inconclusive means 30% to 80%; inactive means below 30%; also: 0% is about no effect
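Fluo-8 calcium influx in TRPV1-expressing cells, kinetic read (ex 480/em 520 nm). Compound added and read 3 min for agonist activity, followed by capsaicin at EC20 final and 2 min further read for enhancement.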
* marks the source's active call; other numbers are inactive results; ? = inconclusive; . = not tested or not shown; [ ] = another dose, or the depositor's remark.

SMILES	Menin-MLL FL inh	ClpP mod	TRPML1 blocker	TRPML1 agonist	PINK1 expr mod	Sfp PPTase inh	TRPV1 potentiator
CCc1ccc(S(=O)(=O)c2nnn3c2nc(NCc2ccccc2)c2cc(Cl)ccc23)cc1	.	3.7%	-9	-0.6	-0.3%	.	.
CCCS(=O)(=O)NC(=O)C1(C)CCCN(C(=O)c2ccc(OC)cc2OC)C1 (configuration not stated)	.	-0.4%	.	-0.6	1.8%	.	.
CN(C)c1ccc(C(=O)C(O)c2ccccc2)cc1 (configuration not stated)	2.4	-15%	-2	-0.8	2.1%	16%	-11
CCOC(=O)N1CCN(C(=O)C2CC(=O)N(c3ccccc3)C2)CC1 (configuration not stated)	.	-0.7%	-9	0.7	-1.6%	-2%	-1
Cc1cc(C)nc(-n2ncc3c2CC(c2ccccc2)CC3=O)n1 (configuration not stated)	-0.3	.	-1	1.3	-0.1%	-5%	-15
CCCc1[nH]nc2c1C(c1ccncc1)C(C#N)=C(N)O2 (configuration not stated)	0.7	-0.5%	-1	-0.2	-2.9%	-17%	24
CSc1cccc(NC(=O)C2CCN(S(=O)(=O)c3ccc4[nH]c5c(c4c3)CCCCC5)CC2)c1	.	?	-23	0.9	0.4%	.	.
Cc1cnc(C(=O)OCC(=O)N(C)CC(=O)Nc2ccccc2Cl)cn1	.	-1.8%	1	-0.6	1.2%	.	-7
Cc1ccc(C(=O)OCC(=O)N(CCc2ccccc2)Cc2ccccc2)cc1S(=O)(=O)N1CCOCC1	.	0.6%	19	0.3	-2.3%	.	0
Oc1ccccc1NCC(O)Cn1ccc2ccccc21 (configuration not stated)	?	-1.6%	2	2.7	2.2%[38.3 µM]	-27%	4
O=C(CNC(=O)c1ccco1)OCC(=O)c1ccc(Cl)cc1	1.3	0.0%	11	0.0	-0.2%	16%	5
CCCN1Cc2cccc(C(=O)Nc3ccc(CC)cc3)c2C1=O	-3.1	-3.1%	9	2.3	10%	4%	2
COc1ccc2c(CNCCc3cccs3)c(C(=O)O)n(Cc3ccccc3C)c2c1	.	?	9	-0.6	2.2%	.	.
OCC[C@@H]1C[C@@H](O)[C@H](O)[C@@]2(OCc3ccccc32)O1	1.4	-1.3%	40	0.4	1.5%	17%	13
CC1(c2ccccc2)NC(=O)N(CC(=O)Nc2ccccc2C(=O)NC2CC2)C1=O (configuration not stated)	.	-2.0%	7	1.5	5.2%	15%	11
CCOC(=O)C1CCN(S(=O)(=O)c2cc3c(cc2C)NC(=O)CO3)CC1	-2.4	-2.6%	13	-0.3	1.9%	14%	-22
Cc1cc(=O)oc(C)c1C(=O)NCCCN1CCN(c2ccccc2F)CC1	0.3	-0.6%	9	0.2	-5.3%[38.3 µM]	0%	-6
Cc1coc2cc3oc(=O)c(CC(=O)NCc4ccc(F)cc4)c(C)c3cc12	.	?	-4	-0.5	1.0%	.	.
O=C(CNC(=O)c1ccccc1)NCC(=O)OCC(=O)c1ccccc1Cl	-9.5	-0.3%	9	-0.3	-0.1%	11%	5
CN1CCC(N(C)C(=O)/C(C#N)=C/c2ccc(OC(F)F)cc2)CC1	-3.2	1.9%	-5	0.0	3.8%	11%	0
COc1cc2c3nnc(-c4ccccc4)c-3cn(Cc3ccccc3F)c2cc1OC	?	.	-12	3.1	?	9%	3
Cc1ccccc1CN1C(=O)c2ccccc2S(=O)c2ccc(C(=O)NCCCN3CCOCC3)cc21 (configuration not stated)	-5.7	-0.5%	-2	0.6	-0.6%	1%	6
COc1ccccc1Cn1c(C)c(C(=O)NCc2cccc(C)c2)sc1=O	.	0.6%	.	-0.9	0.3%	.	.
Cc1noc(C)c1S(=O)(=O)N(C)C[C@H]1Oc2c(cccc2N(C)C)C(=O)N([C@H](C)CO)C[C@@H]1C	.	-2.7%	10	-0.3	-0.8%	.	.
CCCCN(C)C(=O)c1sc(=O)n(Cc2ccccc2C#N)c1C	.	-1.2%	.	-0.1	-0.1%	.	.

Look-ups from the results shown.
TRPML1 agonist with CCOC(=O)C1CCN(S(=O)(=O)c2cc3c(cc2C)NC(=O)CO3)CC1 → -0.3
TRPML1 blocker with COc1ccc2c(CNCCc3cccs3)c(C(=O)O)n(Cc3ccccc3C)c2c1 → 9

(listing goes on)
SMILES	Menin-MLL FL inh	ClpP mod	TRPML1 blocker	TRPML1 agonist	PINK1 expr mod	Sfp PPTase inh	TRPV1 potentiator
CCCc1nnc(NC(=O)CS(=O)(=O)c2ccccc2)s1	1.0	.	39	-0.5	-2.8%	6%	13
COc1ccccc1-c1c(C)nn2c(N3CCC4(CC3)OCCO4)cc(C)nc12	2.1	-0.9%	-3	-1.2	2.2%	-3%	-18
Cn1c(C(=O)NCc2cccnc2)cc2sc(Cl)cc21	1.0	-1.3%	-15	0.4	3.9%[38.3 µM]	2%	-12
COCCNC(=O)CN(C(=O)c1ccc(N2CCCC2)nc1)c1ccc(Cl)cc1	-0.7	-7.7%	16	-0.1	1.2%	1%	22
COc1ccc(CNC(=O)c2cnc3scc(C)n3c2=O)cc1	-1.4	5.2%	6	-0.4	2.6%	-9%	16
O=C1NC(=Nc2ccccc2)S/C1=C\C=C\c1ccco1	0.0	0.2%	23	-0.6	6.0%	14%	3
CCOC(=O)c1c(C)n(CCNC(C)=O)c2ccc(O)cc12	5.4	0.6%	-8	-0.1	.	8%	3
COc1cccc(C2c3[nH]c4ccccc4c3C[C@H]3C(=O)N(CCCCCO)CC(=O)N23)c1 (some centres not stated)	3.9	1.8%	.	.	3.8%	11%	25
CC(C)N(C)c1ncnc2c1ncn2[C@H]1CN(Cc2ccco2)C[C@@H](CO)O1	.	-2.1%	.	-0.4	-0.7%	.	.
O=C(CCc1n[nH]c(=O)[nH]c1=O)N1CCCCC1	1.4	-1.3%	44	0.5	1.7%	19%	-11
CCCn1nc(NS(=O)(=O)c2cccc3nonc23)c2cc3ccccc3nc21	3.8	-0.9%	-8	0.7	-2.2%	1%	3
CCn1c2ccccc2c2nnc(SCCCn3c(=O)[nH]c4ccccc43)nc21	1.7	1.3%	17	4.4	7.7%[38.3 µM]	?	16
COC(CNC(=O)c1ccc2c(c1)ncn2-c1ccc(C)cc1C)OC	5.0	.	-22	-0.7	0.6%	5%	29
O=C1CC(N2CCC(c3nc4ccccc4[nH]3)CC2)C(=O)N1c1ccccc1F (configuration not stated)	-2.4	.	-14	0.3	0.3%	8%	0
Cc1cccc(NC(=O)CSc2cn(CC(=O)N3CCCC3)c3ccccc23)c1C	.	-1.9%	17	-0.3	0.6%	.	.
O=S1(=O)CC/C(=N\Nc2ccc(F)cc2)c2ccsc21	-6.2	-0.1%	2	-0.5	-1.3%	-10%	-1
COc1cc2c(C(=O)N3CCN(Cc4ccc5c(c4)OCO5)CC3)cn(C)c(=O)c2cc1OC	-1.2	-24%	-2	-0.4	-4.7%	-3%	.
O=C(CCS(=O)(=O)c1ccc(Cl)cc1)Nc1nccs1	.	0.8%	9	-0.8	2.7%	.	10
CN1C(=O)C(C)(C)c2cc(S(=O)(=O)N3CCN(c4ccccc4)CC3)ccc21	2.3	-0.4%	3	0.0	0.5%	4%	13
Cc1ccc(C2CC(c3cccs3)=NN2C(=O)CSc2nc3ccccc3o2)cc1 (configuration not stated)	4.6	14µM*	9	0.0	-1.8%	13%	12
COc1c(C(=O)NC(=S)Nc2nnn(C)n2)cc2ccccc2c1Br	4.7	-2.0%	9	-0.3	6.3%	7%	17
COc1ccc(CN(Cc2ccc(OC)cc2)C(=O)c2cccs2)cc1	-2.9	.	8	3.3	9.9%	-5%	-10
CCOc1cc(NC(=S)NC)c(OCC)cc1NC(=O)c1ccc(OC)cc1	-1.6	.	-7	2.1	2.4%	9%	-17
COc1ccc(NC2CC(=O)N(c3ccccc3)C2=O)cc1 (configuration not stated)	-5.9	-1.5%	3	0.0	?	-17%	20
COc1ccc(C(C(=O)NC2CCCC2)N(C(=O)c2csnn2)C2CCCC2)cc1 (configuration not stated)	-1.1	.	19	1.3	0.3%	21%	-3

Reprinted from the part before: 2 entries; new compounds follow.
SMILES	Menin-MLL FL inh	ClpP mod	TRPML1 blocker	TRPML1 agonist	PINK1 expr mod	Sfp PPTase inh	TRPV1 potentiator
COc1ccc(NC2CC(=O)N(c3ccccc3)C2=O)cc1 (configuration not stated)	-5.9	-1.5%	3	0.0	?	-17%	20
COc1ccc(C(C(=O)NC2CCCC2)N(C(=O)c2csnn2)C2CCCC2)cc1 (configuration not stated)	-1.1	.	19	1.3	0.3%	21%	-3
Cc1ccc(N2C(=O)N(CC(=O)Nc3cc(F)ccc3C)C(=O)C2C)cc1 (configuration not stated)	.	0.9%	16	1.4	0.6%	.	2
CCCC(=O)Nc1sc(C)c(C)c1C(=O)Nc1cccc(C)c1	45[activator]	1.2%	-16	1.8	.	-1%	-7
CCN1C(=O)/C(=c2\sc3nc(=O)c(Cc4ccccc4)nn3c2=O)c2ccccc21	4.7	0.0%	-17	-0.7	-2.3%	25µM*	2
COC(=O)c1sccc1NC(=O)c1cc(-c2ccc(C)cc2C)nc2ccccc12	6.4	?	-17	1.4	5.0%	6%	2
Cc1ccccc1NC(=O)NCCc1nc2ccccc2[nH]1	5.4	0.9%	-5	-0.6	-1.0%	31%[activator]	6
COC(=O)c1ccccc1NC(=O)c1ccc(CN2CC(=O)N3CCCCC3C2=O)cc1 (configuration not stated)	.	-9.8%	-9	1.4	1.3%	.	.
COc1ccc(-n2nc(C(=O)NCC(=O)N3CCN(c4ccccc4OC)CC3)c3ccccc3c2=O)cc1OC	.	-0.7%	13	-0.9	2.5%	-4%	12
Cc1cc2cc(C)c(NCCNC(=O)c3cccc(F)c3)nc2cc1C	0.1	-17%	-3	1.4	0.3%	14%	3
COc1ccc2oc3cc(C)[n+]([O-])c(-c4ccc(Br)cc4)c3c2c1	-0.2	-8.2%	-6	-0.9	5.4%	-11%	-30
Cc1cc(C)c(NC(=O)CNC(=O)CSc2nnc(N)s2)c(C)c1	.	.	16	-0.2	0.9%	.	16
Cc1ncnc(N)c1CCCNc1ccccc1	.	-5.9%	-1	0.3	1.6%	.	.
CCOc1ccc(NC(=O)CN(C)C(=O)C2CSC3(C)CCC(=O)N23)cc1OCC (configuration not stated)	.	1.0%	-1	-0.6	4.8%	.	1
CSc1oc(-c2ccco2)nc1S(=O)(=O)c1ccccc1	9.3	-6.2%	3	-0.2	-0.2%	-7%	.
